Compound activity from PubChem BioAssay.
D2 potentiator = Beta-Arrestin HTS for Positive Allosteric Modulators of the Human D2 Dopamine Receptor: Potentiators | D(2) dopamine receptor (Homo sapiens), P14416 | DiscoveRx D2 beta-arrestin cells, luminescence, 90 min; 100% = 57 uM dopamine signal | potentiation, % (concentration not given with the values) | 0.23% of 360,000 active; active = potentiation of 50% or more; inconclusive = 30% to 50%; inactive = 30% or less;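 note: compound concentration not given in the record; tested on top of an EC20 dose of dopamine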
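PathHunter D2 cells, attached overnight at 37 deg C, received compound in DMSO plus dopamine at EC20 (50 nM final) for 90 min at 37 deg C. Beta-arrestin recruitment was read as luminescence after 1 h with detection reagent at ambient temperature.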
CtBP-E1A blk = qHTS Assay for Inhibitors of the CtBP/E1A Interaction; CtBP / adenovirus E1A interaction (AlphaScreen); AlphaScreen GST-E1A/His-CtBP binding, 1536-well; hits give low values; control for the full effect not named in the record; activity change, % (test concentration not listed); 0.49% of 340,000 active; AID 651724, 2012; in the data active means activity change below about -65%; inconclusive means about -30% to -65%; inactive means above about -30%; note: % is set by controls: 0 for no effect and ±100 for the full control effect; compound concentration not given in the record
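In 5 uL wells, 23 nL compound meets equimolar GST-E1A and His-CtBP (5X stock 125 nM each) for 2 h, 37 °C. Beads (5X, 50 ug/mL) then 1 h, 37 °C, dark.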
gsp agonist = qHTS for Agonist of gsp, the Etiologic Mutation Responsible for Fibrous Dysplasia/McCune-Albright Syndrome: qHTS. gsp mutant cells, cAMP HTRF, 30 min; control for the full effect not named in the record. Potency, µM (doses to about 76.9 µM), without a hit: at the top dose activation (cAMP increase), actives largely listed as activators. 0.13% of 340,000 active. AID 624287, 2012; active = well fitted activation curve with a large enough effect; inconclusive = small, poorly fitted or top-dose-only effect, or another doubt; inactive = no such curve, though single readings can be large or run the other way; cell line not stated here;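 note: phosphodiesterase inhibitor Ro 20-1724 added with compounds to block cAMP breakdown; potency is the fitted concentration of half-maximal effect; nearly all actives have a fitted effect of over 60% in size; about a fifth of the inactives were tested at one dose only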
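Cells in DMEM/10% FBS with G418 were pretreated with compounds in DMSO plus […] (300 uM stock) for 30 min at 37C. cAMP was measured by HTRF (cAMP-d2 plus anti-cAMP antibody-K) after 30 min at room temperature.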
Six1-Eya2 blk = qHTS Assay for Inhibitors of the Six1/Eya2 Interaction. Homeobox protein SIX1 (Homo sapiens) + Protein phosphatase EYA2 (Homo sapiens), …. AlphaScreen GST-Six1/His-Eya2 binding, biochemical; hits give low values; control for the full effect not named in the record. activity change, % (concentration not given with the values). 0.56% of 360,000 active; in the data active = activity change below about -65%; inconclusive = about -30% to -65%; inactive = above about -30%; note: % is set by controls: 0 for no effect and ±100 for the full control effect
Target sequence (O00167 whole entry, looked up): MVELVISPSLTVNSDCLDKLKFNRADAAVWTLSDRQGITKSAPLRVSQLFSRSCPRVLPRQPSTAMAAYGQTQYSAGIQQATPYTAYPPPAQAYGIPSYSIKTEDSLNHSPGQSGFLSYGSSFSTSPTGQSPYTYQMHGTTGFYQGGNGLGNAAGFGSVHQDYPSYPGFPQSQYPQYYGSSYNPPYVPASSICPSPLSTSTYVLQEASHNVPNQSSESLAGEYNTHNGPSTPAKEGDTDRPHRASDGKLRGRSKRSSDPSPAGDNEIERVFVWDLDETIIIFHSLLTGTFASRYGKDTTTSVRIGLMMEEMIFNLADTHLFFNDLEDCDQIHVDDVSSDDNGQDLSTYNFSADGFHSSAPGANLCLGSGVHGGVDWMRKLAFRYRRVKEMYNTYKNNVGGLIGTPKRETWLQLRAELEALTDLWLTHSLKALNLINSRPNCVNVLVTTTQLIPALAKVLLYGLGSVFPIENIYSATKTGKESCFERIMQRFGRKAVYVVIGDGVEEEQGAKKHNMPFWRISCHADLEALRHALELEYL
Target sequence (Q15475 whole entry, looked up): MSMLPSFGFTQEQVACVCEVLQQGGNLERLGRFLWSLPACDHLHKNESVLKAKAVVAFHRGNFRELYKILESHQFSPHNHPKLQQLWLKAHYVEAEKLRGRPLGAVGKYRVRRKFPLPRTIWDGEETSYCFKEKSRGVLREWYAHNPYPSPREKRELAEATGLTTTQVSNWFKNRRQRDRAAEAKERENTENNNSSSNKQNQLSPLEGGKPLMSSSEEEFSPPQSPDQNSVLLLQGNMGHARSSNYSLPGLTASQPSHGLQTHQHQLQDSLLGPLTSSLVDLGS
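GST-Six1 + His-Eya2 (5X stock: 250/500 nM); Tris pH 8.0, 300 mM NaCl, 0.05% BSA, 0.02% Tween 20; GSH donor/Ni acceptor beads; 1 h 37 °C dark; AlphaScreen readout.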
D2 ag = Beta-Arrestin HTS for Positive Allosteric Modulators of the Human D2 Dopamine Receptor: Agonists; AID 624465, 2012; 0.084% of 360,000 active; DiscoveRx PathHunter D2 beta-arrestin, luminescence, 90 min; 100% = 57 uM dopamine signal; activation, % (test concentration not listed); in the data active = activation above about 40%; inconclusive = about 15% to 40%; inactive = below about 15%; note: compound concentration not given in the record; the text of the record calls up to 30% inactive
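Agonist mode: compounds alone added to overnight-plated D2 PathHunter cells for 90 min at 37 C, with 57 uM final dopamine (EC100) defining full response. Beta-arrestin recruitment detected by chemiluminescent reagent, read after 1 h at ambient temperature.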
gsp antag = qHTS for Antagonists of gsp, the Etiologic Mutation Responsible for Fibrous Dysplasia/McCune-Albright Syndrome: qHTS; gsp-mutant cells, cAMP HTRF, 30 min; control for the full effect not named in the record; Potency, µM (doses to about 76.9 µM), for the others: at the highest dose activity change, negative = inhibition, usual class: inhibitors; 0.4% of 340,000 active; active = falling curve of any shape with a large fitted effect; inconclusive = falling curve, mostly with a smaller effect; inactive = flat or rising curve; cell line not stated here;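 note: intracellular cAMP measured with PDE inhibitor Ro 20-1724 present during compound exposure; potency is the fitted concentration of half-maximal effect; % is set by controls: 0 for no effect and ±100 for the full control effect; nearly all actives have a fitted effect of over 65% in size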
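Cells in G418 medium, seeded 16-24 h, 37C; buffer exchange to DPBS + 1 mM CaCl2, 0.5 mM MgCl2, 0.05% BSA; cpds in DMSO + […] (300 uM stock), 30 min 37C; HTRF cAMP detection.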
* marks the source's active call; other numbers are inactive results; u = inconclusive; x = no result given; & = joins results of further samples; [ ] = remark or other dose.

SMILES	D2 potentiator	CtBP-E1A blk	gsp agonist	Six1-Eya2 blk	D2 ag	gsp antag
Cc1ccc2cccc(OC(=O)N3CCCC3)c2n1	-12	8	-20%	1	0.6	-5%
O=C(CN1CCN(c2ccccc2)CC1)Nc1cccc(C(F)(F)F)c1	-21	12	5%	4	-0.5	35%[activator]
COP(=O)(OC)C(Nc1ccccn1)c1ccccc1 (centres undefined)	0	3	-7%	2	1.6	11%
CCCCn1c(=O)c(C(=O)Nc2ccsc2C(=O)OC)c(O)c2ccccc21	9	12	7%	20	-5.3	-5%
Cc1ccc2c(c1)C(c1ccccc1)NCC(=O)N2 (centres undefined)	11	5	0%	0	-3.2	8%
O=c1c2ccccc2nc(-c2ccc(Cl)cc2Cl)n1-c1nccs1	-3	-3	-31%[inhibitor]	5	-3.2	4%
COCCCNC(=O)C1CCCN(C(=O)Nc2ccc(OC)cc2)C1 (centres undefined)	-1	0	u	6	2.2	5%
c1cncc(CNCCN2CCNCC2)c1	-27	-3	5%[15.4 µM]	1	-2.1	9%
CC[N+]12CCC(CC1)C(C(O)(c1ccccc1)c1ccccc1)C2 (centres undefined)	-19	-1	-48%[inhibitor]	-5	-3.7	6%
C=CCNC(=O)c1c(N)n(Cc2ccco2)c2nc3ccccc3nc12	-6	-6	2%	-7	-0.6	3%
CCC1(c2ccc(-c3ccccc3)cc2)C(=O)NC(=O)NC1=O	-11	x	-5%	1	2.4	-2%
COc1ccc2[nH]cc(CCNCc3cccnc3)c2c1	-1	5	-11%	0	3.1	3%
O=c1[nH]c(O)c(N=Nc2ccc(SC(F)F)cc2)c(=O)[nH]1	-10	5	-51%[inhibitor]	-2	-0.2	-10%
CCNC(=S)N(C)CCc1cc2c(c(OC)c1C=C1C(=O)N(C)C(=O)N(C)C1=O)OCO2	-1	5	27%	-3	0.7	1%
COc1ccc(CN2C(=O)NC(=O)/C(=C/c3ccc([N+](=O)[O-])s3)C2=O)cc1	2	u	-82%[inhibitor]	u	x	u
OCC1(CO)COC(c2cccnc2)N1 (centres undefined)	11	7	-5%	3	-1.2	-1%
CC(C)CN1Cc2cc(-c3cccc(F)c3)ccc2-n2nncc2C1	-9	u	x	-2	8.3	x
CCCC1(CCC)C(=O)NC(=NCc2ccccc2)NC1=O	-18	4	-16%	5	1.3	7%
Cc1cccc(-n2c(O)c(C=Nc3ccc(Br)cn3)c(=O)[nH]c2=O)c1	5	0	-3%[15.4 µM]	-3	-1.1	x
NC(Cc1ccccc1)c1nn[nH]n1 (centres undefined)	-5	-8	3%	-18	-0.1	16%
N#Cc1ccc(NC(=O)CCNC(=O)c2ccco2)cc1Cl	3	0	-8%[15.4 µM]	-1	-1.1	3%
Cc1cc(N2CCOCC2)ccc1/C=C1\C(=O)NC(=O)N(c2ccccc2)C1=O	4	4	2%	1	5.9	-2%
CCOP(=S)(OCC)Oc1cc(C)oc(=O)c1Cl	4	5	20%	-10	-1.4	6%
O=C(CNC(=O)c1ccc(Cl)cc1)Nc1ccc(Br)cc1C(=O)c1ccccc1	-18	-20	2%[15.4 µM]	-8	1.4	u
CC(=O)Nc1ccc(OCCF)cc1	1	-1	-70%[inhibitor]	0	0.8	-7%
O=C1C2CCCN2C(c2cccnc2)N1c1cccc(Cl)c1 (centres undefined)	-6	-18	5%	-23	5.9	4%
O=c1[nH]c(=O)n(Cc2ccc(F)cc2)c(O)c1C=NCCCO	-5	-4	-19%	5	-2.0	5%
COc1cccc(/C=C2\N=C(c3cncc(Br)c3)OC2=O)c1	-2	1	16%	2	-1.0	12%
CCc1ccc(N2C(=O)NC(=O)/C(=C\c3cc(C)n(-c4cc(C(=O)O)cc(C(=O)O)c4)c3C)C2=O)cc1	-3	1	3%[15.4 µM]	-8	-6.0	2%
c1ccc(C(CN2CCCCC2)c2ccccc2)cc1	-23	-3	3%[15.4 µM]	0	-1.9	15%
COc1cc(C)cc2oc(=O)c(CC(=O)N3C[C@H]4C[C@@H](C3)c3cccc(=O)n3C4)c(C)c12	-20	-17	x	1	-4.1	0%
COc1ccc(Cn2c(O)c(/C=N/NC(=O)c3ccncc3)c(=O)[nH]c2=O)cc1	1	u	-7%[15.4 µM]	u	4.2	1%
O=C(C1CCC(=O)N1C1CCCC1)N1CCC2(CC1)OCCO2 (centres undefined)	8	6	-4%	1	1.3	-1%
CC(=O)c1cc(C(C)=O)c(C)[n+](C)c1C	1	11	3%[15.4 µM]	11	-1.1	10%
COC(=O)C1=C(c2ccc(F)cc2OCc2ccccc2)C[C@@H]2CC[C@H]1N2C(=O)NCc1ccc(Br)cc1	-3	0	6%	0	6.9	-17%
O=C(Cc1ccccc1)N1CCN(Cc2c[nH]c3ccccc23)CC1	-16	-7	u	-1	-3.7	3%
C=C1C(=O)O[C@H]2C[C@@H](C)[C@@H]3C=CC(=O)[C@@]3(C)C[C@H]12	-39	3	x	3	0.5	-4%
COc1ccc(C2C3C=CC(C3)C2C(=O)O)cc1 (centres undefined)	-7	0	-27%	26	-3.8	x
C[N+]1(C)[C@@H]2CC(OC(=O)[C@H](CO)c3ccccc3)C[C@H]1[C@@H]1O[C@@H]12 (some centres undefined)	-5&-11	8&1	x	-6&-1	-2.3&-3.3	26%&3%
S=c1[nH]nc(-c2ccccc2)n1C1C=CCCC1 (centres undefined)	u	-9	u	5	4.9	-9%
CC12CCC(=O)CC1CCC1C2C(=O)CC2(C)C1CCC2(C)O (centres undefined)	6	3	-3%	1	2.6	-6%
CNC(=O)NC(O)C(Cl)(Cl)Cl (centres undefined)	-10	8	2%	4	-5.5	11%
CC1(C)C(=O)CC[C@@]2(C)C1=CCC1C2CC[C@]2(C)C(=O)CCC12 (some centres undefined)	-5	1	13%	4	0.0	-6%
CC(=O)Nc1ccccc1C(=O)OCc1ccc(F)cc1	-4	16	-8%	5	3.6	0%
O=C(Cc1ccccc1)NC(Oc1ccccc1Cl)C(Cl)(Cl)Cl (centres undefined)	-9	8	14%[15.4 µM]	9	-5.9	-12%
O=C1CN=C(c2ccc[nH]2)c2cc(Cl)ccc2N1	17	x	-39%[inhibitor]	-3	-3.3	16%
CN1CCC(n2nccc2N)CC1	-3	-1	13%	2	-0.9	4%
C[n+]1c2cc(N)ccc2cc2ccc(N)cc21	-7&-14	u	x	u	5.0&2.4	u

Rewritten as labelled records: entries from further up
O=C1CN=C(c2ccc[nH]2)c2cc(Cl)ccc2N1
  D2 potentiator = 17
  CtBP-E1A blk = x
  gsp agonist = -39%[inhibitor]
  Six1-Eya2 blk = -3
  D2 ag = -3.3
  gsp antag = 16%
CC12CCC(=O)CC1CCC1C2C(=O)CC2(C)C1CCC2(C)O (centres undefined)
  D2 potentiator = 6
  CtBP-E1A blk = 3
  gsp agonist = -3%
  Six1-Eya2 blk = 1
  D2 ag = 2.6
  gsp antag = -6%

The listing continues.
SMILES	D2 potentiator	CtBP-E1A blk	gsp agonist	Six1-Eya2 blk	D2 ag	gsp antag
COC(=O)C1=C(c2cccc(C#N)c2)C[C@@H]2CC[C@H]1N2C(=O)NCC1CC1	-4	-15	x	1	-0.2	-9%
Clc1ccccc1NC1=NCCCS1	-8	3	15%[15.4 µM]	-7	-3.9	9%
COC(=O)C1=C(c2ccc(OCc3ccccc3)cc2)C[C@@H]2CC[C@H]1N2C(=O)NCc1ccc(N(C)C)cc1	-7	-8	-23%	-22	-3.1	-21%
COC(=O)C1=C(c2ccc3ccccc3c2)C[C@@H]2CC[C@H]1N2C(=O)NCC1CC1	-12	2	x	3	1.0	3%
ClC1=C(Cl)C(Cl)=C(Cl)C1=C/C=C/c1ccccc1	2	2	-34%[inhibitor]	-9	1.3	5%
Cc1cc(/C=C2/C(=O)NC(=O)N(c3ccc(Br)cc3)C2=O)c(C)n1C	-2	1	6%[15.4 µM]	-15	-2.6	0%
COc1ccc(Br)cc1CNCCc1ccc2c(c1)OCO2	-13	-1	6%[15.4 µM]	-17	-3.5	6%
CCC1CCC(C)N(N=O)C1 (centres undefined)	-31	4	-11%	-1	-5.0	15%
O=C1NC(=O)C(=Cc2ccc(N3CCN(C(=O)c4ccccc4)CC3)c([N+](=O)[O-])c2)C(=O)N1	-9	-17	5%[15.4 µM]	2	-3.7	-15%
O=C1NC(=O)C(CCc2ccncc2)(C2CCCCC2)C(=O)N1	-3	6	5%	3	2.7	4%
CCCCn1nnnc1C(c1cccc(OC)c1OC)N1CCC2(CC1)C(=O)NCN2c1ccccc1 (centres undefined)	-2	-5	x	-13	4.6	x
Cc1cccc(-n2c(O)c(/C=N/Nc3nc4c(c(=O)n(C)c(=O)n4C)n3C)c(=O)[nH]c2=S)c1	24	-73*	u	-90*	5.1	-9%
CCCC(=O)NC(Oc1ccc(OC)cc1)C(Cl)(Cl)Cl (centres undefined)	0	-3	29%	-1	0.4	8%
CC(C)(C)c1nc(NCc2ccc3c(c2)OCO3)c2nnn(Cc3ccccc3Cl)c2n1	-12	-5	-1%	-3	-2.4	10%
Cc1ccc(N=Cc2c(O)n(-c3ccc(C)cc3)c(=O)[nH]c2=O)cc1	-1	0	4%	14	-0.3	3%
COc1ccc(CCNCc2ccncc2)cc1	-17	-1	14%	4	-1.0	2%
C=C(CC1CC(O)[C@]2(C)OC3CC4OC5C[C@]6(C)O[C@]7(C)CCC8OC9C[C@]%10(C)OC%11C(C)=CC(=O)OC%11CC%10OC9C[C@@H](C)C8OC7CC6O[C@]5(C)C/C=C\C4OC3CC2O1)C(=O)O (some centres undefined)	-4	5	-5%	-4	-5.4	-1%
CC(C)n1c(=O)c(C=Nc2ccc(F)cc2)c(O)n(Cc2ccco2)c1=O	-6	1	-2%[15.4 µM]	-9	-2.9	-6%
O=c1[nH]c(=O)n(CCC2=CCCCC2)c(O)c1C=NCCN1CCNCC1	-11	-8	18%	0	0.0	-4%
C[C@]12CCC3[C@@H](CCC4=CC(=O)CC[C@@]43C=O)C1CCC2=O (some centres undefined)	-7	x	-2%	4	2.3	7%
CCn1c(P(C)(=O)O)nc2ccccc21	-8	2	-71%[inhibitor]	6	-1.3	1%
O=C1NC(=O)C(=Cc2ccc(-c3ccccc3[N+](=O)[O-])o2)C(=O)N1	-6	-1	5%[15.4 µM]	-3	0.8	7%
O=C1NCN(c2ccccc2)C12CCN(C(c1nnnn1Cc1ccccc1)C1CC1)CC2 (centres undefined)	-9	-2	x	-9	1.5	x
O=C1NC(=O)C(=Cc2ccc(N3CCOCC3)cc2)C(=O)N1	-1	3	-1%	2	5.2	-7%

The list is partial. The share of hits here may be higher or lower than overall.
